Screening data from PubChem BioAssay.
StopGo FLuc: FMDV 2A StopGo reporter, firefly signal; Potency, µM (top dose mostly 57.5 µM), without a hit: top-dose signal change, negative = less light; HEK cells with a luciferase reporter of 2A StopGo recoding; 0.23% of 120,000 active; active = well fitted falling curve with a large enough effect; inconclusive = small, poorly fitted or top-dose-only effect; inactive = no such curve, though single readings can be large or run the other way; note: nearly all actives have a fitted effect of over 60% in size; overnight with compound
2A Renilla: FMDV 2A StopGo reporter, Renilla signal; HEK cells with a luciferase reporter of 2A StopGo recoding; Potency, µM (doses to about 57.5 µM), for inactives: at the top dose signal change, negative = less light; 0.32% of 120,000 active; AID 1745857; active means well fitted falling curve with a large enough effect; inconclusive means small, poorly fitted or top-dose-only effect; inactive means no such curve, though single readings can be large or run the other way; note: nearly all actives have a fitted effect of over 55% in size; overnight with compound
The depositor's hits bear a star; ? = inconclusive; [ ] = remark or other dose. % is set by controls: 0 for no effect and ±100 for the full control effect; potency is the fitted concentration of half-maximal effect. The list is partial, so the mix of outcomes need not match the whole.

| SMILES | StopGo FLuc | 2A Renilla |
| --- | --- | --- |
| CCOC(=O)c1cc(S(=O)(=O)N(C)CC(=O)N2CCN(c3ccccc3F)CC2)cn1C | 4% | 10% |
| COC(=O)C1C(=O)CC(C)(O)C(C(=O)OC)C1c1ccc(Cl)cc1 (configuration not stated) | -10% | 6% |
| O=C(NCc1ccc(NC(=O)C2CC2)cc1)c1ccccc1CCc1ccccc1 | 10% | -27% |
| CCC1CCCCN1S(=O)(=O)c1ccc(C(=O)Nc2nc(-c3ccncc3)cs2)cc1 (configuration not stated) | 18% | 11% |
| CCC(CO)Nc1ccc(-c2n[nH]c(=O)c3ccccc23)cc1[N+](=O)[O-] (configuration not stated) | 75%[activator] | 22% |
| COc1ccc(Nc2c(-c3ccccn3)nc3ccc(Cl)cn23)cc1 | -3% | 6% |
| Cc1cccc(OCc2nc(C#N)c(NCc3ccccc3Cl)o2)c1 | 231%[activator] | 33%[activator] |
| COCc1nnc(NS(=O)(=O)c2ccc(Br)cc2)s1 | -10% | 52%[activator] |
| CNc1oc(-c2ccc(COc3ccc(C)cc3)o2)nc1C#N | 8% | -10% |
| CC(C)CCn1c(=O)c2cccnc2n(CC(=O)Nc2ccccc2)c1=O | 0% | -9% |
| CC(=O)N(c1onc(C)c1C)S(=O)(=O)c1ccc(N)cc1 | 17%[11.5 µM] | 3% |
| O=C(COc1ccc2c(c1)CCC2)OCC(=O)c1ccc2c(c1)OCCO2 | 5% | 5% |
| N#Cc1cccnc1Oc1ccc(C(N)=O)cc1 | 10% | 17% |
| O=C(O)Cn1ncc(=O)c2ccccc21 | 9% | -1% |
| COCCCNC(=O)Nc1cc(C(=O)NCc2ccc(OC)cc2)ccc1N1CCCC1 | 72%[activator] | 63%[activator] |
| Cc1ccc(CSc2nc3c(=O)n(C)c(=O)n(C)c3n2C)cc1 | 10% | 2% |
| NC(=O)c1ccccc1NC(=O)C1(c2ccccc2)CCCC1 | -16% | -22% |
| N#Cc1ccc(/C=N/NC(=S)NCc2ccccc2)cc1 | 27% | 61%[activator] |
| Cc1ncc(-c2ccc(S(=O)(=O)N3CCN(c4cc(Cl)ccc4C)CC3)cc2)o1 | -10% | 5% |
| Cc1ccc(S(=O)(=O)N(CC(=O)NCc2ccncc2)c2ccccc2Cl)cc1 | -20% | 56%[activator] |
| Clc1ccccc1N1CCN(Cc2nnc(-c3ccc(Br)s3)o2)CC1 | 4% | 0% |
| C(#CCN1CCN(CC#CCOCc2ccccc2)CC1)COCc1ccccc1 | -7% | -3% |
| CC(C)c1ccc(CN(C(=O)c2cc(=O)c3cc(Cl)ccc3o2)C2CCS(=O)(=O)C2)cc1 (configuration not stated) | 11% | -1% |
| CC(=O)c1c(C)[nH]c(C(=O)C(C)Oc2ccc(F)c(F)c2)c1C (configuration not stated) | ? | -4%[1.06 µM] |
| CCOc1ccc(CN(C(=O)c2cc(=O)c3cc(Cl)c(C)cc3o2)C2CCS(=O)(=O)C2)cc1 (configuration not stated) | -2% | 6% |
| Cc1ccc2c(c1)C(c1ccc(F)cc1)N(C(=O)COc1ccc(Cl)cc1Cl)CC(=O)N2 (configuration not stated) | ? | -6% |
| CCc1nnc(NC(=O)c2cc(-c3ccncc3)nc3ccccc23)s1 | -8% | -6% |
| CCCNc1c(NC(=O)Nc2ccc(C)c(Cl)c2)c(=O)oc2ccccc12 | 6% | 2% |
| CCCCCC(C)NC(=O)CSc1nc2cc(S(=O)(=O)N(C)C)ccc2o1 (configuration not stated) | ? | ? |
| CCC1c2ccsc2CCN1C(=O)CNC(=O)c1ccc(Cl)cc1Cl (configuration not stated) | -7% | 10% |
| CC(C)(C)c1cc2cc(C#N)ccc2[nH]1 | -17% | -23% |
| CCc1ccc(S(=O)(=O)c2nnn3c2nc(N2CCC(C(N)=O)CC2)c2cc(Cl)ccc23)cc1 | -11% | 83%[activator] |
| Cc1cc2n(CC(O)COc3ccc(-c4ccccc4)cc3)c(=O)c3ccccc3n2n1 (configuration not stated) | 34%[activator] | -14% |
| Cc1ccc(-c2noc(CNC(=O)c3ccc(Br)o3)n2)cc1 | 3% | 0% |
| Cc1cc(C)cc(C(=O)N(Cc2nc(-c3ccc(Cl)cc3)no2)C(C)C)c1 | 0% | 6% |
| COc1ccc(C)cc1NS(=O)(=O)c1c(C(=O)N2CCCCCC2)c(C)n(C)c1C | -9% | 82%[activator] |
| CC(=O)c1ccc(NC(=O)CN(C)S(=O)(=O)c2cccc3nsnc23)cc1 | -13% | -15% |
| CCc1cc2c(cc3c(=O)n(CC(=O)NCCc4ccc(OC)c(OC)c4)ncn32)s1 | 4% | -11% |
| Cc1cccc(Nc2nc(Nc3cccc(C)c3)nc(N3CCOCC3)n2)c1 | -13% | -1% |
| O=C(c1n[nH]c(=O)c2ccccc12)N1CCC(CCc2ccccc2)CC1 | ? | ? |
| COc1cc(OC)cc(C(=O)Nc2cc3c(cc2N2CCCC2)n(C)c(=O)c(=O)n3C)c1 | -4% | -2% |
| COC(=O)c1ccc(O)c(Br)c1 | 20% | 6% |
| CC(C)c1ccc(OCCCCN2CCCC2)cc1 | 1% | -8% |
| COc1ccccc1NC(=O)CSC1=Nc2ccccc2C2=NC(CCC(=O)NCc3ccco3)C(=O)N12 (configuration not stated) | -22% | 11% |
| Cc1cc(C2CCCN2Cc2nc(-c3ccccc3)oc2C)on1 (configuration not stated) | -3% | -5% |
| CCc1ccc(-n2nnc(-c3nsc(NC(=O)c4ccccc4Cl)n3)c2C)cc1 | 13% | 4% |
| Cc1ccc(-n2c(=O)c3c(cnn3C)n(CC(=O)Nc3cc(C)ccc3C)c2=O)cc1 | -19% | -9% |
| Brc1cccc(CNCc2cccnc2-n2cccn2)c1 | -15% | -13% |
| O=C(Nc1ccc(-c2ccccc2)cc1)c1ccc2c(c1)OCO2 | 43%[activator] | -10% |
| CC(C)(C)C(=O)CSc1nccc(C(F)(F)F)n1 | -2% | -18% |

Continued.
| SMILES | StopGo FLuc | 2A Renilla |
| --- | --- | --- |
| Cn1c(=O)[nH]c(=O)c2c1nc(NCc1ccccc1Cl)n2Cc1ccccc1Cl | 6% | 10% |
| CCCC(=O)c1cc2c(cc1NC(=O)c1ccccc1F)OCCO2 | -12% | -13% |
| CC(C)N(C)C1CCN(S(=O)(=O)c2ccc3[nH]c(=O)ccc3c2)CC1 | -10% | -6% |
| Cc1ccc(Nc2nc(-c3cccc(N4C(=O)c5ccccc5C4=O)c3)cs2)cc1 | 115%[activator] | -18% |
| O=C(c1nc2nc(-c3cccs3)cc(C(F)(F)F)n2n1)N1CCC2(CC1)OCCO2 | 10% | 11% |
| O=C(NC1CCCC1)c1cc(-c2ccccc2Cl)nc2ccccc12 | -6% | 11% |
| COc1ccccc1CN1CCC(CNC(=O)c2cnn(-c3cccc(Cl)c3)c2C2CCN(C(=O)OC(C)(C)C)CC2)CC1 | -11% | -5% |
| COc1ccccc1-c1noc(Cn2nc(C)c(S(=O)(=O)N3CCc4ccccc43)c2C)n1 | 7% | 18% |
| O=C(CCc1ncc(-c2ccc(Cl)cc2)o1)Nc1ccc(F)cc1Cl | 9% | -10% |
| CC(NC(=O)Nc1cc(Cl)ccc1Cl)c1c(-n2cccc2)sc2c1CCCC2 (configuration not stated) | -5% | -7% |
| O=C(NCC(c1cccnc1)N1CCc2ccccc2C1)C(=O)Nc1ccc(Cl)cc1 (configuration not stated) | ? | ? |
| CCOc1ccc(NC(=O)N2CCC(C(N)=O)(N3CCCCC3)CC2)cc1 | -11% | -11% |
| O=[N+]([O-])c1ccc(C(c2sc3nc(-c4ccco4)nn3c2O)N2CCN(c3cccc(Cl)c3)CC2)cc1 (configuration not stated) | -8% | -5% |
| Cc1ccc(-c2nc3ccc(C)cc3c(C(=O)O)c2C)cc1 | 16% | 9% |
| COc1ccc(C(=O)COC(=O)C2CC(=O)N(NC(=O)c3ccc(Cl)c(Cl)c3)C2)cc1 (configuration not stated) | 1% | -6% |
| O=C(COC(=O)c1cccs1)c1ccc(OC(=O)c2ccccc2)cc1 | 0% | -1% |
| O=C(c1ccccc1F)N1CCCC(c2nc3ccccc3o2)C1 (configuration not stated) | 71%[activator] | -9% |
| S=c1nc[nH]c2nc[nH]c12 | 0% | -22% |
| Cc1ccc(OCC(=O)Nc2nnc(SCc3cc(=O)c4ccccc4[nH]3)s2)cc1 | -1% | -8% |
| Cc1cc(S(=O)(=O)Nc2ccc(C(=O)NCC(c3ccccc3)N(C)C)cc2)ccc1F (configuration not stated) | 4% | 20% |

Part of the list above in a different format.
> O=C(NC1CCCC1)c1cc(-c2ccccc2Cl)nc2ccccc12
  StopGo FLuc: -6%
  2A Renilla: 11%
> COc1ccccc1CN1CCC(CNC(=O)c2cnn(-c3cccc(Cl)c3)c2C2CCN(C(=O)OC(C)(C)C)CC2)CC1
  StopGo FLuc: -11%
  2A Renilla: -5%
> COc1ccccc1-c1noc(Cn2nc(C)c(S(=O)(=O)N3CCc4ccccc43)c2C)n1
  StopGo FLuc: 7%
  2A Renilla: 18%
> O=C(CCc1ncc(-c2ccc(Cl)cc2)o1)Nc1ccc(F)cc1Cl
  StopGo FLuc: 9%
  2A Renilla: -10%

The results go on:
| SMILES | StopGo FLuc | 2A Renilla |
| --- | --- | --- |
| CS(=O)(=O)N1CCc2cc(NS(=O)(=O)c3ccc4c(c3)CC(=O)N4)ccc21 | 1% | 190%[activator] |
| CC1CCN(CCCNC2CCCCCC2)CC1 | -20% | -13% |
| CCOC(=O)c1[nH]c(C)c(CCC(=O)NCc2ccc(CC)cc2)c1C | 46%[activator] | 82%[activator] |
| CC[C@H](C)[C@H](NC(=O)c1ccc2nc(-n3cccc3)sc2c1)C(=O)NCc1ccccn1 | 8% | ? |
| O=C(OC1C=CC2COC1O2)c1ccccc1 (configuration not stated) | 5% | 7% |
| Cc1nc(NC(=O)C2CC(=O)N(Cc3ccccn3)C2)sc1C (configuration not stated) | 27% | -3% |
| COC(=O)c1sc2cccc(F)c2c1S(=O)(=O)NC(C)c1ccccc1 (configuration not stated) | -4% | 107%[activator] |
| CCOc1ccc(NC(=O)CC2C(=O)N(c3ccc(F)cc3)C(=O)N2CCc2sccc2C)cc1 (configuration not stated) | 4% | 95%[activator] |
| CC(C)Oc1ccc(C(=O)Nc2cccc(-c3nc4ccccc4o3)c2)cc1 | 83%[activator] | 20% |
| CCOc1ccc(-c2cc(C(=O)OC)c3cc(C)ccc3n2)cc1 | 20% | -6% |
| NC(=O)C1CCN(Cc2cccc(C(F)(F)F)c2)CC1 | -2% | 1% |
| CCc1c(C)sc(NC(=O)c2ccc(Cl)s2)c1C#N | 158%[activator] | 25% |
| CC(C)(C)c1ccc(NC(=O)COc2ncnc3ccccc23)cc1 | 51%[activator] | -3% |
| O=C(N/N=C/c1ccccn1)c1cc[n+]([O-])cc1 | 2% | 2% |
| CCc1ccc(CN(Cc2ccco2)C(=O)c2cc(-c3ccc(Cl)cc3)on2)cc1 | -3% | -10% |
| CCCOc1cccc(C(=O)Nc2ccc(OCCC)c3ncccc23)c1 | -2% | -8% |
| Cc1c(-c2ccc(Br)cc2)nc2ccccc2c1C(=O)O | -11% | -11% |
| COC(=O)c1ccccc1NC(=O)c1cnc2c(-c3cccc(C)c3)c(C)nn2c1C | -12% | -10% |
| O=C(CSc1nnc2ccc(-c3ccncc3)nn12)NC1CCCCC1 | 7% | -1% |
| Cn1c(=O)c2c(nc(NCCc3ccccc3)n2CC(=O)O)n(C)c1=O | 57%[activator] | -7% |
| Cc1cccc(N2CCN(C(=O)CCCn3c(=O)[nH]c4ccsc4c3=O)CC2)c1C | -9% | 1% |
| Cc1ccc(N(C)C(=O)CCS(=O)(=O)c2cc3c(cc2Cl)NC(=O)CO3)cc1 | -5% | -3% |
| Cc1cc2n(CC(O)COc3ccccc3)c(=O)c3ccccc3n2n1 (configuration not stated) | 3% | 15% |
| Cc1csc(NC(=O)CCNC(=O)c2ccoc2)n1 | 1% | -17% |
| Cc1ccc(-c2nc(CS(=O)(=O)CC(=O)NCCc3ccccc3)c(C)o2)cc1 | -3% | -6% |
| CN(C(=O)C(=O)Nc1ccc2nc3n(c(=O)c2c1)CCCCC3)c1cccc(C(F)(F)F)c1 | -7% | -6% |
| Cc1cc(C(=O)OCC(=O)Nc2ccccc2C)c2ccccc2n1 | 1% | -1% |
| CCC(C)NCCc1ccccc1 (configuration not stated) | 22% | -2% |
| Cc1cc2nc(COC(=O)c3cccc(NC(=O)c4ccc(C(C)(C)C)cc4)c3C)cc(=O)n2o1 | 58%[activator] | 8% |
| c1ccc(-c2cn3c4ccccc4nc3n2CCN2CCCCC2)cc1 | -12% | -9% |

The last three entries of the section above are carried over, then new ones follow:
| SMILES | StopGo FLuc | 2A Renilla |
| --- | --- | --- |
| CCC(C)NCCc1ccccc1 (configuration not stated) | 22% | -2% |
| Cc1cc2nc(COC(=O)c3cccc(NC(=O)c4ccc(C(C)(C)C)cc4)c3C)cc(=O)n2o1 | 58%[activator] | 8% |
| c1ccc(-c2cn3c4ccccc4nc3n2CCN2CCCCC2)cc1 | -12% | -9% |
| Cc1cccc(NC(=O)c2ccc3nc(CCc4ccccc4)oc3c2)c1C | 81%[activator] | 12% |
| OCCCn1c(-c2ccc(F)cc2)csc1=Nc1ccc(F)cc1 | ? | 89%[activator] |
| O=C(NCCc1cnc(-c2ccccc2)[nH]1)c1ccc(-c2ccccc2)cc1 | -6% | -9% |
| Cc1cc(C(=O)CN(C)Cc2ccc3c(c2)OCO3)c(C)n1C(C)C | -5% | -9% |
| COCCCNc1nc2c(c(=O)n(C)c(=O)n2C)n1Cc1cccc(Cl)c1 | -5% | -11% |
| O=C(O)c1ccc(/C=C/C(=O)c2ccccc2C(=O)O)cc1 | 7% | -2% |
| COc1ccc(C2=C(N3CCN(c4cc(Cl)ccc4C)CC3)c3ccccc3C2=O)cc1 | -8% | -4% |
| Cc1ccc(C(CNC(=O)c2oc3ccc(F)cc3c2C)N(C)C)o1 (configuration not stated) | 1% | -18% |
| Cc1nc2ccc(Cl)cc2cc1C(=O)OCC(=O)NCC1CCCO1 (configuration not stated) | -11% | -17% |
